PMP22 txn – modulates PMP22 transcription in S16 Schwann cells. S16 Pmp22-F2sN Schwann cells (luciferase reporters placed in the Pmp22 gene), FLuc/NLuc coincidence luminescence, 24 h. Potency, µM (highest dose often 57.5 µM), for inactives: at the top dose activity change, negative = inhibition, hits mostly inhibitors. 2% of 43,000 active. AID 1508649; active = clear falling dose curves in both reporters; inconclusive = both reporters move, but less clearly or upward; inactive = either reporter flat; the % is the NLuc reporter signal; further: on the % scale 0 is the no-effect control and ±100 the full control effect; some results filed as inactive show a strong effect at the top dose
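Luminescent read-out of sequential FLuc and NLuc signals from a reporter embedded in the Pmp22 3' UTR of S16 Schwann cells, taken after 24 h compound exposure at 37C; compounds reducing both signals score as inhibitors of expression.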
HTT prom inh – inhibitors of huntingtin promoter activity; AID 1508623; 0.93% of 48,000 active; Potency, µM (titrated, usually from 57.5 µM), inactives show at the top dose activity change, negative = inhibition, actives largely listed as inhibitors; HEK293 HTT promoter firefly luciferase reporter (activity 0% = vehicle and -100% = no light), 24 h; active means well fitted inhibition curve with a large enough effect; inconclusive means small, poorly fitted or top-dose-only effect; inactive means no such curve, though single readings can be large or run the other way; further: nearly all actives have a fitted effect of over 50% in size
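HEK293 cells carrying firefly luciferase reporters were seeded at 2,500 per well in Opti-MEM and cultured for 24 h. They were then treated with compounds at up to 57.5 uM final for 24 h at 37 degrees C before Dual-Glo luminescence readout.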
Starred values were filed as active, the others as inactive; ? = inconclusive; / = not tested or not shown. Potency means the concentration at half of the fitted maximal effect.

no.	canonical_smiles	PMP22 txn	HTT prom inh
1	CCOc1ccc(-c2cc(C(=O)N3CCN(c4cccc(C)c4)C(C)C3)c3ccccc3n2)cc1 (centres undefined)	-8.0%	-17.6%
2	Cc1ccc(OCCCCn2nnc3sc4c(c3c2=O)CCC(C)C4)cc1 (centres undefined)	-4.2%	13.3%
3	Cc1ccc2onc(CC(=O)N3CCN(c4cccc(C)c4C)CC3)c2c1	-15.6%	?
4	Cc1ccc(Sc2ccc(N3CCCC(C(=O)Nc4ccc(F)cc4F)C3)nn2)cc1 (centres undefined)	-39.0%	-16.2%
5	CCOc1ccc(-n2cc(-c3ccccc3)c3c(NC4CCCCC4)ncnc32)cc1	-1.8%	-9.6%
6	COc1ccc(CNC(=O)c2ccc3nc(C(C)C)oc3c2)cc1OC	?	?
7	Cc1ccc(-n2nc3c(=O)n(CC(=O)NCC(C)c4ccccc4)nc(C)c3c2C)cc1 (centres undefined)	?	?
8	CC(C)OCCCn1c(SCC(=O)Nc2ccc(F)cc2)nc2c(sc3ccccc32)c1=O	-10.6%	-14.3%
9	O=C(NCCc1ccc(Cl)cc1)c1ccc2c(c1)N(Cc1ccc(F)cc1)C(=O)CS2	?	?
10	COc1ccc(Br)cc1CNC(=O)c1ccc(-n2c(C)cc3c2CCC(C)C3)cc1 (centres undefined)	?	-3.7%
11	Cn1c(NCCN)nc2c1c(=O)n(Cc1ccccc1)c(=O)n2C	-6.2%	-20.9%
12	Cn1c(=O)c2cc(C(=O)Nc3cccc(C#N)c3)sc2c2ccccc21	13.3%	-4.6%
13	O=c1c(O)c(-c2cc(O)c(O)c(O)c2)oc2cc(O)cc(O)c12	/	1.9%
14	COC(=O)CC1Oc2ccc(Cl)cc2-n2cc(-c3ccccc3)nc21 (centres undefined)	-8.2%	-12.7%
15	Cc1cccc2sc(N(CCN(C)C)C(=O)c3ccc4c(c3)OCCO4)nc12	?	-25.1%
16	Cc1cccc(N2CCN(c3ncnc4onc(C)c34)CC2C)c1 (centres undefined)	11.3µM*	12.6µM*
17	CCOC(=O)c1ccccc1NC(=O)CN1CCCN(Cc2cccc(Cl)c2)S1(=O)=O	?	-21.8%
18	Cc1ccc(CNC(=O)CCN2C(=O)COc3ccc(C)cc32)cc1	?	-9.4%
19	CC(C)NC(=O)C1CCC(Cn2c(=O)c3sccc3n(CC(=O)N3CCCC3)c2=O)CC1 (centres undefined)	-2.7%	7.4%
20	Cc1ccc2c(c1)c(=O)c1ccccc1n2CCCC(=O)Nc1ccc(Cl)c(Cl)c1	?	?

6 entries drawn at random from those above, as already listed:
no.	canonical_smiles	PMP22 txn	HTT prom inh
10	COc1ccc(Br)cc1CNC(=O)c1ccc(-n2c(C)cc3c2CCC(C)C3)cc1 (centres undefined)	?	-3.7%
18	Cc1ccc(CNC(=O)CCN2C(=O)COc3ccc(C)cc32)cc1	?	-9.4%
7	Cc1ccc(-n2nc3c(=O)n(CC(=O)NCC(C)c4ccccc4)nc(C)c3c2C)cc1 (centres undefined)	?	?
13	O=c1c(O)c(-c2cc(O)c(O)c(O)c2)oc2cc(O)cc(O)c12	/	1.9%
8	CC(C)OCCCn1c(SCC(=O)Nc2ccc(F)cc2)nc2c(sc3ccccc32)c1=O	-10.6%	-14.3%
15	Cc1cccc2sc(N(CCN(C)C)C(=O)c3ccc4c(c3)OCCO4)nc12	?	-25.1%

(list continues)
no.	canonical_smiles	PMP22 txn	HTT prom inh
21	Cc1ccc(C)c(NC(=O)CN(C)S(=O)(=O)c2cccc3nsnc23)c1	-3.9%	-13.4%
22	Cc1cc(C)n2c(Nc3c(C)cccc3C)c(-c3ccsc3)nc2n1	1.8%	-11.1%
23	CCOc1cccc(CC(=O)NCc2ccc3c(c2)CCN3C(=O)c2ccc(F)cc2)c1OCC	-83.9%	-16.0%
24	CCOC(=O)c1c(NC(=O)CCCOc2ccc(C(C)(C)C)cc2)sc2c1CCCC2	-1.2%	-8.0%
25	CC1CCCN(C(=O)Cn2c(=O)oc3cc(S(=O)(=O)N4CCCCC4)ccc32)C1 (centres undefined)	-43.5%	-12.1%
26	Cc1c2cnn(CC(=O)N3CCN(c4ccccc4)CC3)c(=O)c2c(C)n1Cc1ccc(F)cc1	-34.9%	-28.0%
27	O=C(C1CCCCC1)N1CC(=O)N2CCCc3ccccc3C2C1 (centres undefined)	/	-16.3%
28	Cc1ccc(Sc2c(C(=O)NCc3cccc(F)c3)[nH]c3ccccc23)cc1	-7.0%	-20.4%
29	CN(C)S(=O)(=O)c1ccc(C(=O)NC2CC(=O)N(c3ccc4c(c3)OCCO4)C2)cc1 (centres undefined)	3.6%	-14.4%
30	CCOc1cccc(CC(=O)N2CCc3c([nH]c4ccccc34)C2c2ccc(Cl)cc2)c1OCC (centres undefined)	6.8%	-26.3%
31	Cc1ccc(S(=O)(=O)c2nnn(CC(=O)Nc3ccccc3C)c2N)cc1C	10.0%	0.9%
32	O=C(CN1C(=O)c2cccc3cccc1c23)Nc1ccccc1Br	4.6%	-12.4%
33	Cc1ccc2c(CNCc3ccc(C)o3)c(C(=O)O)n(Cc3ccc(F)cc3)c2c1	?	-28.2%
34	CCc1ccc(S(=O)(=O)NCc2nc3cccnc3n2Cc2ccccc2Cl)cc1	?	-13.4%
35	Cc1ccccc1OCC(=O)OCc1cc(=O)n2ccsc2n1	14.6%	-12.9%
36	COc1ccc(Cl)cc1NC(=O)CSC1=Nc2ccccc2C2=NC(CCC(=O)NCc3ccc(F)cc3)C(=O)N12 (centres undefined)	?	-4.4%
37	O=C(CSc1n[nH]c(-c2ccccc2Cl)n1)N1CCN(c2ccccc2)CC1	0.3%	0.1%
38	Oc1cccc(-c2nc(N3CCOCC3)c3oc4ncccc4c3n2)c1	/	?
39	CN(C)c1ccc(C(CNC(=O)COc2ccccc2)N2CCOCC2)cc1 (centres undefined)	-5.1%	-0.7%
40	COc1ccc(Cn2ccnc2SCC(=O)NCc2ccco2)cc1	-9.2%	-16.7%

Results in sequence from the entries so far:
HTT prom inh, entries 2–10 → 13.3%, ?, -16.2%, -9.6%, ?, ?, -14.3%, ?, -3.7%

The list continues.
no.	canonical_smiles	PMP22 txn	HTT prom inh
41	CC1CCN(c2nc3ccc(C(=O)NCc4ccccc4)cc3s2)CC1	1.4%	0.112µM*
42	CCOc1ccc(NC(=O)Cn2c(=O)n(CC(=O)NCc3ccccc3Cl)c(=O)c3sccc32)cc1	1.8%	-12.4%
43	Cc1cccc(N2CCN(C(=O)CN3C(=O)COc4ccc(S(=O)(=O)N5CCC(C)CC5)cc43)CC2C)c1 (centres undefined)	?	-12.3%
44	COc1ccc(-c2noc(CSc3nc(N)cc(=O)[nH]3)n2)cc1	-37.7%	22.4µM*
45	Cc1ccc(-c2nnc(SCC(=O)c3ccc(Cl)cc3)n2-c2ccccc2)cc1	2.8%	-13.1%
46	O=C(Nc1ccc(F)cc1)c1ccc(Cn2nc(N3CCN(c4ccccc4)CC3)ccc2=O)o1	?	14.1µM*
47	COC(=O)c1ccccc1NC(=O)CSc1n[nH]c(CC(C)C)n1	-20.4%	-22.0%
48	COc1ccc(Cl)cc1NC(=O)N1CCN(S(=O)(=O)c2ccc3c(ccn3C)c2)CC1	-7.3%	-26.6%
49	Cc1ccc(-c2cn3c(n2)sc2cc(C(=O)NCCCN4CCCCCC4)ccc23)cc1	?	3.1%
50	COc1ccc(N2Cc3cccc(C(=O)Nc4cc(C)cc(C)c4)c3C2=O)cc1	-10.7%	3.4%
51	COc1cc2c(cc1OC)C(COc1ccc3c(C)cc(=O)oc3c1)N(C(=O)c1cc(Cl)ccc1OC)CC2 (centres undefined)	-55.3%	-6.3%
52	COc1ccc(/C=C\c2onc(C)c2S(=O)(=O)N2CCC(C(=O)Nc3cccc(C)c3C)CC2)cc1	-3.7%	-13.0%
53	Cc1ccc(S(=O)(=O)c2nnn3c2nc(N(C)Cc2ccccc2)c2cc(Cl)ccc23)cc1C	-9.8%	0.8%
54	Cc1ccc(Cl)cc1-n1c(=O)c2sc3ccccc3c2n(CC(=O)NC2CCCC2)c1=O	-4.4%	-26.2%
55	COC(=O)c1c(NC(=O)COc2c(C)cccc2C)sc2c1CCCC2	-13.3%	?
56	COc1ccc(OC)c(NC(=O)CSC2=Nc3ccccc3C3=NC(CC(=O)NCc4ccc(F)cc4)C(=O)N23)c1 (centres undefined)	?	-24.2%
57	Cc1nnc(N2CCC(C(=O)NCCc3ccccc3)CC2)c2nn(-c3ccc(Cl)cc3)c(C)c12	3.8%	-11.3%
58	COc1ccc(N2C(=O)CS(=O)(=O)C23C(=O)N(Cc2ccccc2F)c2ccccc23)cc1Cl (centres undefined)	-13.8%	?
59	CC(C)CN(CCCNC(=O)c1cc(=O)[nH]c2ccc(S(=O)(=O)N3CCCC3)cc12)CC(C)C	-0.2%	-18.2%
60	COc1cccc(C2C=C(c3ccccc3)Nc3c(C(=O)Nc4ccccc4)cnn32)c1OC (centres undefined)	?	-9.4%
61	CC(=O)c1cc(-c2ccccc2)n(CC(=O)NCCc2ccc(C)cc2)c1C	-4.5%	?
62	COc1ccc(Cl)cc1NS(=O)(=O)c1ccc2c(c1)NC(=O)CC(=O)N2	?	-3.1%
63	CCC1CN(C(=O)NCc2cccc(OC)c2)c2cc(Cl)ccc2O1 (centres undefined)	?	-20.6%
64	O=C(Nc1ccc(F)c(Cl)c1)C1CCCN(S(=O)(=O)c2cccc3nsnc23)C1 (centres undefined)	?	?
65	O=C1CC(c2cc(F)cc(F)c2)c2cc3c(cc2N1)OCO3 (centres undefined)	?	?
66	COCCNC(=O)c1ccc2c(c1)ncn2-c1cc(C)ccc1OC	0.8%	-3.9%
67	COc1ccc(-c2nn(-c3ccccc3)cc2C2NC(=O)NC(C)=C2C(=O)OC(C)C)cc1Cl (centres undefined)	?	?
68	COc1cccc(N2CC(NC(=O)c3cccc(OC)c3OC)CC2=O)c1 (centres undefined)	8.8%	-17.5%
69	CC[C@H](Nc1ncnc2nc[nH]c12)c1nc2cccc(F)c2c(=O)n1-c1ccccc1	/	?
70	COc1ccc(NC(=O)C2CCN(C(=O)c3sc4nc[nH]c(=O)c4c3C)CC2)cc1Cl	?	5.4%
71	Cc1ccc(NC(=O)C2CCC(CNS(=O)(=O)c3csc(C(N)=O)c3)CC2)cc1Cl (centres undefined)	-19.3%	-23.0%
72	CCOC(=O)C1CCN(C(=O)CSc2n[nH]c(-c3ccc(F)cc3)n2)CC1	-25.3%	-3.3%
73	Cc1ccc(OCc2cc(=O)n3cc(C)sc3n2)c(C)c1	-18.1%	4.1%
74	CCNC(=O)c1ccc2c(c1)sc1nc(-c3cccc(OC)c3)cn12	-33.2%	13.8%
75	COc1ccc(-c2noc(CNC(=O)c3ccco3)n2)cc1	6.5%	-4.7%
76	CCOc1ccc(N2CC(c3nc4ccccc4n3Cc3cccc(C)c3)CC2=O)cc1 (centres undefined)	?	-27.7%
77	COCCCNC(=O)C1CCC(Cn2c(=O)c3sccc3n(C)c2=O)CC1 (centres undefined)	14.3%	-1.5%
78	CCc1ccc(NC(=O)CSC2=Nc3ccccc3C3=NC(CC(=O)NCc4ccccc4)C(=O)N23)cc1 (centres undefined)	-8.7%	-20.0%
79	Cn1c(=O)oc2cc(S(=O)(=O)NCCC(=O)Nc3ccc(F)cc3F)ccc21	13.1%	12.4%
80	COCCCNC(=O)CN1C(=O)c2cccnc2Sc2ccccc21	1.0%	-5.0%
81	COc1ccc(NC(=O)CSc2nc(-c3ccccc3)nc3cc(=O)[nH]n23)cc1	?	-12.6%
82	O=C(Cc1ccc(Cl)cc1)NCCc1csc2nc(-c3ccccc3F)nn12	?	-8.9%
83	COc1ccc(C(CNC(=O)c2oc3ccc(C)cc3c2C)N2CCOCC2)cc1 (centres undefined)	-24.8%	-5.2%
84	COc1ccc2c(c1)c(=O)c(C(=O)c1ccc(Cl)cc1)cn2CC(=O)Nc1ccc2c(c1)OCO2	-41.5%	-4.2%
85	CCCCNC(=O)C1CCC(CNS(=O)(=O)c2ccc(Cl)cc2)CC1 (centres undefined)	2.2%	-1.6%
86	CC(=O)Nc1ccc(S(=O)(=O)NC2=NCN(C(C)C)CN2)cc1	2.8%	-14.7%
87	CCC1Oc2ccccc2N(CC(=O)NCCc2ccc(OC)c(OC)c2)C1=O (centres undefined)	4.4%	?
88	CCN1CCN(CCCNC(=O)Cn2c(-c3cccs3)cc3cc(Cl)ccc32)CC1	?	?
89	CCOCCCNC(=O)c1c(NC(=O)Cc2coc3ccc(C)cc23)sc2c1CCC2	?	-19.7%
90	CCc1cccc(C)c1NC(=O)CSc1nc2ccccc2nc1Cc1ccccc1	?	-2.9%
91	O=C(c1ccc(CS(=O)(=O)c2ccc(Br)cc2)o1)N1CCN(c2ccc(F)cc2)CC1	-15.4%	-25.7%
92	CCCOC(=O)c1c(-c2ccccc2)c(-c2ccccc2)nn(C)c1=O	-1.8%	27.2%

Screens deposited in PubChem by National Center for Advancing Translational Sciences (NCATS).

Compounds were not picked by outcome; 2.6% or so of the library scored in one or more.
